Screening results as filed in PubChem.
PrP 5UTR inh: inhibition of PrP 5' UTR reporter expression; AID 488862; cell-based PrP 5' UTR mRNA reporter, plate reader; 340,000 compounds, 0.35% hits; inhibition, % (no concentration beside the values);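 active means every replicate at 50% or more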;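 further: 0 = median of the neutral control wells; tested in H4 reporter cells; numbers are from one replicate; inactives centre near -14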
Bead autofluor: compound fluorescence in toxin protease inhibitor counterscreen. AID 624483. 360,000 compounds, 3.1% hits. compound autofluorescence counterscreen, microsphere flow cytometry; stronger effect = higher value. fluorescence intensity (test concentration not listed);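 active means at least 3 SD above the mean of all compounds, about 16000 in these data; inconclusive means too few beads counted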;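 further: 100 nL of 1 mM stock went into each well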
Sa RN4220 lethal: kills Staphylococcus aureus RN4220; S. aureus RN4220 growth, OD600, 16 h; inhibition, % (no concentration beside the values); 330,000 compounds, 0.33% hits; AID 1259311;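 active means z-score of -3 or lower and OD600 up to 0.18 on both plates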;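 further: plate controls were untreated cells for no effect and reference antibiotic for full effect; stock transfer was 100 nL into about 80 µL; one replicate is shown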
Mtb hypoxia rep: inhibitors of hypoxia-regulated fluorescent reporter in Mycobacterium tuberculosis | M. tuberculosis hypoxia-regulated fluorescent reporter, fluorescence | fluorescence inhibition, % (test concentration not listed) | 300,000 compounds, 0.1% hits;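 active means 35 to 45% if threefold the growth effect, above 45% if 1.5-fold the growth effect; inactive means the rest, general growth blockers included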;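 further: wells of about 50 µL received 100 nL stock; 0% = vehicle wells and 100% = reference inhibitor wells; whole bacteria with a GFP reporter of the hypoxia response; strong numbers were not always called active; many hits fall short of the cut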
Sa ugtP lethal: kills S. aureus RN4220 lacking UgtP; S. aureus RN4220 ugtP deletion, OD600 growth, 16 h; some inactives read as strong as hits; growth inhibition, % (concentration not given with the values); 330,000 compounds, 0.54% hits; AID 1259309;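 active means z-score under -3 and OD600 up to 0.15 on both plates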;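 further: plate controls were untreated wells for no effect and antibiotic for full effect; wells of about 80 µL received 100 nL stock; the first replicate is given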
BJeLR viability: BJeLR cell viability loss. BJeLR (HRASV12) viability, CellTiter-Glo ATP luminescence, 48 h; reference of the scale not given here. inhibition, % (test concentration not listed). 300,000 compounds, 0.17% hits. AID 1554;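 active means replicate mean above 50%; inconclusive means above 50% but judged a plate artefact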;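 further: 50 nL library stock added to about 25 µL; numbers are from one replicate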
Mtb hypoxia rep growth: second read-out of Mtb hypoxia rep, no call of its own (marks repeat the call); growth inhibition, %; measured here: M. tuberculosis growth (absorbance);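 0% = vehicle and 100% = reference antibiotic; read after six days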
Numbers without * were called inactive; ? = inconclusive; . = no result given.

item	Molecule	PrP 5UTR inh	Bead autofluor	Sa RN4220 lethal	Mtb hypoxia rep	Mtb hypoxia rep growth	Sa ugtP lethal	BJeLR viability
1	O=c1nc(-c2ccccc2Cl)c2cc(F)ccc2[nH]1	-17.5	4135	3.0	6.6	-1.5	0.4	-1.7
2	Cc1noc(C)c1S(=O)(=O)N(C)CC(=O)Nc1ccc(F)cc1	-22.6	10274	0.9	3.8	14.5	-2.7	3.7
3	Cc1cc(OC(=O)N(C)C)n(-c2ccccc2)n1	-12.2	3801	4.4	5.6	16.1	2.7	1.1
4	COC(=O)Nc1ccc(NC(C)=O)cc1	-19.5	23186*	5.1	10.1	16.5	4.2	-6.7
5	CCOC(=O)N1CCN(C(=O)C2CCN(S(=O)(=O)c3cc(Cl)ccc3Cl)CC2)CC1	-24.4	9215	4.3	4.6	13.1	-2.4	-4.2
6	C#CC(CCN1CCCCC1)(OC)c1ccccc1 (stereo not given)	-0.8	3044	2.7	-0.7	-2.0	0.8	4.9
7	Cc1cc(C)nc(NNS(=O)(=O)c2c(F)cc(F)cc2Br)n1	5.7	4087	1.3	-7.6	-9.3	-6.5	.
8	N#Cc1c(N=Cc2ccco2)sc2c1CCCCC2	.	.	8.7	8.9	7.8	-14.9	.
9	COc1ccc(NC(=S)Nc2ncccc2C)c(OC)c1	-18.9	6981	1.6	9.0	4.7	-8.5	3.3
10	CCN(CC)CCCNC(=O)COc1ccc2oc3c(c2c1)CCCC3	-11.9	3657	4.4	16.6	15.6	8.7	13.7
11	C/C(=N\Nc1nc2ccccc2[nH]1)c1cccs1	-71.5	2519	.	.	.	.	-1.0
12	Cc1ccc(NC(=O)Cc2nc(CSc3nnc(-c4ccc5c(c4)OCO5)o3)cs2)cc1	-19.8	3597	5.0	1.5	-1.9	-3.1	-12.1

Some of the entries above in another layout:
7) Cc1cc(C)nc(NNS(=O)(=O)c2c(F)cc(F)cc2Br)n1
  PrP 5UTR inh = 5.7
  Bead autofluor = 4087
  Sa RN4220 lethal = 1.3
  Mtb hypoxia rep = -7.6
  Mtb hypoxia rep growth = -9.3
  Sa ugtP lethal = -6.5
  BJeLR viability = .

8) N#Cc1c(N=Cc2ccco2)sc2c1CCCCC2
  PrP 5UTR inh = .
  Bead autofluor = .
  Sa RN4220 lethal = 8.7
  Mtb hypoxia rep = 8.9
  Mtb hypoxia rep growth = 7.8
  Sa ugtP lethal = -14.9
  BJeLR viability = .

9) COc1ccc(NC(=S)Nc2ncccc2C)c(OC)c1
  PrP 5UTR inh = -18.9
  Bead autofluor = 6981
  Sa RN4220 lethal = 1.6
  Mtb hypoxia rep = 9.0
  Mtb hypoxia rep growth = 4.7
  Sa ugtP lethal = -8.5
  BJeLR viability = 3.3

Further structures.
item	Molecule	PrP 5UTR inh	Bead autofluor	Sa RN4220 lethal	Mtb hypoxia rep	Mtb hypoxia rep growth	Sa ugtP lethal	BJeLR viability
13	CCCCOc1ccccc1P(=O)(O)CP(=O)(c1ccccc1)c1ccccc1	-17.6	3402	0.6	4.4	11.5	-2.3	1.2
14	Cc1nn(C)c(C)c1CN(C)C(=O)c1cnn2c1NC(c1ccccc1)CC2C(F)(F)F (stereo not given)	-22.1	12675	6.0	11.2	2.2	10.0	1.0
15	COc1cccc(/C=N/NC(=O)c2nnn(-c3nonc3N)c2CN(C)c2ccccc2)c1	-6.9	4297	.	.	.	.	4.0
16	CCOc1ccccc1CNC(=O)C1CCCN(c2nn3c(=O)cc(C)nc3s2)C1 (stereo not given)	-9.3	5496	1.7	3.1	9.9	-3.3	1.4
17	O=C(NN=Cc1ccc(Sc2ccccn2)o1)c1cccc(Br)c1	.	.	-4.3	1.4	0.3	-3.5	.
18	CC1(C)Cc2nc(-c3ccccc3)n3cnnc3c2CO1	-20.2	4873	-0.4	.	.	2.0	2.4
19	CN(C)CC(=O)N1c2ccccc2CCc2ccc(NC(=O)c3ccc(N)cc3)cc21	-21.7	2217	1.1	.	.	-1.0	2.7
20	O=C(NC1CCCCC1)c1cc(N2C(=O)CCC2=O)ccc1Cl	0.7	4518	-3.3	-8.7	-5.8	-3.4	-10.4
21	CC(CC(=O)Nc1ccc2c(c1)OCCO2)c1ccccc1 (stereo not given)	-40.0	7298	5.0	8.9	1.9	16.1	-6.6
22	O=[N+]([O-])c1ccccc1CNCCCCO	-8.1	4067	1.5	5.3	10.5	-2.5	.
23	COc1ccccc1NC(=S)N1CCN(c2ncccn2)CC1	-10.7	3571	6.6	3.0	4.4	2.4	-3.0
24	Cc1ccc(CSc2nnnn2C)cc1	-13.8	?	-0.5	4.7	0.0	2.8	2.2
25	NC(=O)C1(N2CCCCC2)CCN(C(=O)c2ccc(C#CC3(O)CCCCC3)cc2)CC1	-8.6	2396	-1.5	.	.	2.9	-15.0
26	CCn1cc(C(=O)NCc2cccc(F)c2)c(=O)c2cc(F)c(N3CCN(C(=O)c4ccco4)CC3)cc21	-9.7	6122	18.2	.	.	46.2	0.9
27	COc1ccc(CCCc2nnc(SCc3nc4ccccc4c(=O)[nH]3)n2C)cc1	-19.1	4610	2.1	-13.4	-15.8	2.5	0.5
28	Nc1nnc(SCc2ccccc2Cl)s1	-5.4	3575	0.8	11.2	2.1	2.7	-1.5
29	CCCCOC(=O)C(C)c1c(C)[nH]c(=S)[nH]c1=O (stereo not given)	-9.5	2435	3.8	.	.	6.9	.
30	Cc1ccc(OCc2cc(C(=O)N(C)CCc3ccccn3)no2)cc1C	-75.9	5097	8.8	4.2	6.2	3.8	2.2
31	COc1ccc(OC)c(NC(=O)C2CC(C)=C(C)CC2C(=O)O)c1 (stereo not given)	-25.0	4171	6.1	18.8	7.3	10.2	5.0
32	COc1ccc(NS(=O)(=O)c2ccc(C)c(C(=O)NNC(=O)c3ccccc3O)c2)cc1	0.1	6454	4.3	12.9	-3.0	-4.8	-0.3
33	COC(=O)/C(C#N)=C/c1c(-c2ccccc2)nc2n1CCS2	-10.5	6301	2.0	12.1	0.2	10.1	8.6
34	COc1ccc(CC2(C)OC(c3ccccc3)=NN2C(C)=O)cc1 (stereo not given)	-12.4	9756	6.1	-6.2	2.9	12.9	-4.8
35	COc1ccccc1-n1cnnc1SCC(=O)Nc1cccc(S(N)(=O)=O)c1	-9.9	5668	0.3	0.6	4.1	10.7	-4.9
36	COc1ccc(NC(=O)NCCN2CCc3ccccc3C2)cc1	-18.9	2688	-2.5	.	.	-3.4	3.5

Additional results
The line under a structure holds: PrP 5UTR inh	Bead autofluor	Sa RN4220 lethal	Mtb hypoxia rep	Mtb hypoxia rep growth	Sa ugtP lethal	BJeLR viability
37: CCC(C)(C)NC(=O)C(c1ccco1)N(C(=O)Cn1nnc2ccccc21)c1ccc2c(c1)OCO2 (stereo not given)
→ -13.0	3161	3.9	1.5	3.6	-0.8	-6.8
38: O=C1C=CC(=O)N1c1ccc2c(c1)C(NC(=O)C(F)(F)F)c1ccccc1-2 (stereo not given)
→ -18.3	3847	10.8	9.9	7.0	11.1	.
39: CC(C)(C)n1nnnc1CN(Cc1ccc(F)cc1)Cc1ccco1
→ -20.7	4063	1.1	-4.9	2.2	-6.4	9.6
40: CC(=O)NC(c1ccc(Cl)cc1Cl)c1ccc2cccnc2c1O (stereo not given)
→ 21.7	3516	.	.	.	.	45.7
41: Cc1n[nH]c(=S)n1/N=C/c1ccccc1
→ -15.6	8280	.	.	.	.	8.0
42: O=C(c1ccccc1)N1CCc2[nH]nc(-c3ccccc3)c2C1
→ -41.5	5227	3.5	5.8	3.4	0.4	-4.6
43: CCC(=NN=C(CC)c1ccc(O)cc1)c1ccc(O)cc1
→ .	.	11.3	5.3	-6.9	6.3	.
44: CN(C)CCn1cnc2ccccc21
→ -10.3	3981	3.1	18.4	7.1	1.4	-2.6
45: O=C(COC(=O)c1ccccc1SCC(=O)N1CCCC1)NC1CCCCC1
→ 2.0	?	4.7	10.8	8.3	3.7	5.8
46: Cc1nc(NS(=O)(=O)c2cccs2)c2c3c(sc2n1)CCC3
→ 11.7	4605	7.7	2.6	3.0	-4.7	10.3
47: CC(C)NC(=O)N(O)C1N(C(C)C)C(=O)N(Cc2ccc3c(c2)OCO3)C1(C)C (stereo not given)
→ -16.1	5989	4.3	10.5	2.0	5.3	-8.6
48: CC1CCc2cc(F)ccc2N1C(=O)c1ccc2c(c1)OCO2 (stereo not given)
→ -18.5	3179	3.2	9.4	6.9	1.3	1.6
49: COc1ccc(C(O)P(=O)(OC(C)C)OC(C)C)cc1 (stereo not given)
→ -19.7	5334	0.2	-1.9	-5.5	6.0	-6.3
50: CCN1CCN(CC(O)COC(c2ccccc2)c2ccccc2)CC1 (stereo not given)
→ -25.7	4346	1.9	13.9	5.9	6.7	4.1
51: Cc1cccc(C(=O)ON=C2CCCc3ccccc32)c1
→ .	.	8.0	0.7	-0.3	10.5	.
52: COc1ccc(Cl)cc1NC(=O)CN(C)C(=O)c1cc2c(s1)CCCC2
→ -32.3	?	-5.9	-3.2	8.3	-6.5	.
53: O=C(O)CSc1nnc(Nc2ccccc2)n1-c1ccccc1
→ -27.9	4056	6.5	12.3	6.3	7.4	-2.4
54: CCC(CC)C(=O)Nc1cc(=O)n(C)c(=O)n1C
→ -13.7	5566	1.2	3.6	10.4	8.1	1.0
55: COc1ccc(Cl)cc1NC(=O)C/C(C)=N/NC(=O)COc1ccc(C)cc1
→ -26.5	3748	.	.	.	.	-8.6
56: Cn1c(CO)cnc1S(=O)(=O)Cc1c(Cl)cccc1Cl
→ -20.6	3497	-0.2	8.9	12.3	2.0	-1.9

Among those listed so far, two have bromine:
The line under a structure holds: PrP 5UTR inh	Bead autofluor	Sa RN4220 lethal	Mtb hypoxia rep	Mtb hypoxia rep growth	Sa ugtP lethal	BJeLR viability
7: Cc1cc(C)nc(NNS(=O)(=O)c2c(F)cc(F)cc2Br)n1
→ 5.7	4087	1.3	-7.6	-9.3	-6.5	.
17: O=C(NN=Cc1ccc(Sc2ccccn2)o1)c1cccc(Br)c1
→ .	.	-4.3	1.4	0.3	-3.5	.

Additional structures:
The line under a structure holds: PrP 5UTR inh	Bead autofluor	Sa RN4220 lethal	Mtb hypoxia rep	Mtb hypoxia rep growth	Sa ugtP lethal	BJeLR viability
57: O=C(O)C(CCC(C(=O)O)c1ccccc1)c1ccccc1 (stereo not given)
→ -29.9	4477	5.9	7.3	6.1	0.6	.
58: CCN(CC(=O)Nc1c(F)cccc1F)C(=O)CN1c2cccc3cccc(c23)S1(=O)=O
→ -14.9	6316	2.4	3.8	14.2	9.7	-8.1
59: Cc1c(NC(=O)c2ccc3c(c2)OCO3)cccc1-c1nc2ccccc2o1
→ 1.0	3259	2.3	-0.5	-0.8	-9.0	-10.6
60: Fc1ccc(-c2nn(-c3ccccc3)cc2CNCc2ccccc2)cc1
→ 1.5	4578	-0.8	5.5	-4.9	-12.3	-1.7
61: CNS(=O)(=O)c1cccc2nsnc12
→ -2.3	2794	6.1	-2.2	-1.1	5.9	3.8

Rows were taken by chance. Share with any hit: about 4%.
